Sfp inh = Sfp phosphopantetheinyl transferase inhibition. Biochemical Sfp PPTase activity, qHTS. Potency, µM, inactives show max response, negative = inhibition, most hits filed as inhibitors. Q9F4F7. AID 1490. hit rate 3.5% among 310,000; active = well fitted inhibition curve with a large enough effect; inconclusive = small, poorly fitted or top-dose-only effect, or another doubt; inactive = no such curve, though single readings can be large or run the other way;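 note: the enzyme is Sfp with the accession as filed and its product quenches rhodamine fluorescence; potency is the fitted concentration of half-maximal effect; 0% = enzyme reaction without inhibitor and -100% = no enzyme wells; top concentration of the series not given in the record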
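After 15 min at room temperature with compound, 15 nM Sfp received 5 uM rhodamine-CoA plus 12.5 uM BHQ-2-ybbR (50 mM Hepes pH 7.6, 10 mM MgCl2). Rate came from the fluorescence difference over 30 min, ex 525/em 598 nm.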
TRPV1 potentiator = enhances activation of the human vanilloid receptor TRPV1; TRPV1-expressing cells, Fluo-8 calcium influx, capsaicin EC20 potentiation; host cell line not named in the record; control for the full effect not named in the record; potentiation, % at 8.33 µM; hit rate 0.02% among 320,000; active means potentiation above 80%; inconclusive means 30% to 80%; inactive means below 30%; note: 0% is about no effect
Target sequence (Q8NER1 whole entry, looked up): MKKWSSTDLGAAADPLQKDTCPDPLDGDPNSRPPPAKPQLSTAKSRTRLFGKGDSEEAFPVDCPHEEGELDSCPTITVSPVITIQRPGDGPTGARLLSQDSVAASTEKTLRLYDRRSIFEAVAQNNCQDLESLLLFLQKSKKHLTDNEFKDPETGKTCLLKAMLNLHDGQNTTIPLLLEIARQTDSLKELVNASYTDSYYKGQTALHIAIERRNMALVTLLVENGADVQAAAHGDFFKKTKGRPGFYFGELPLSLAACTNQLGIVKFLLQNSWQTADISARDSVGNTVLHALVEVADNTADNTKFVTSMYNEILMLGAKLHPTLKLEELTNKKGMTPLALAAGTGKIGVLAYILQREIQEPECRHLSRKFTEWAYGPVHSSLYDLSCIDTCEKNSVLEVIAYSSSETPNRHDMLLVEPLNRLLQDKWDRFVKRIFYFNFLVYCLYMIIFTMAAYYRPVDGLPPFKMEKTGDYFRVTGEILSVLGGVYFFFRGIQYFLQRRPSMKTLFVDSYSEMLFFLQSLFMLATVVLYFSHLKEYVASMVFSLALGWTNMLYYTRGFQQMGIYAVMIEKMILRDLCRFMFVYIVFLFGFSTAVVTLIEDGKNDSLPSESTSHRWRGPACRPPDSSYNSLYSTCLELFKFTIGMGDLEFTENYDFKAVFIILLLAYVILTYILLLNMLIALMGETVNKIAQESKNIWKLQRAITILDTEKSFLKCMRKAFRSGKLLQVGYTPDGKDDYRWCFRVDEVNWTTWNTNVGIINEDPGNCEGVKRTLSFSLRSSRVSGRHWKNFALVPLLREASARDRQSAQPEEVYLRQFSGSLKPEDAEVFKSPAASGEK
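TRPV1-expressing cells were cultured overnight at 35.5C and loaded with Fluo-8 calcium dye for 40 to 90 min at room temperature. After a 10 s baseline, compound was added and calcium influx was read kinetically for 3 min (ex 480/em 520 nm).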
gsp antag = antagonizes gsp, the McCune-Albright syndrome mutation; gsp-mutant cells, cAMP HTRF, 30 min; control for the full effect not named in the record; Potency, µM (titrated, usually from 76.9 µM), without a hit: at the top dose activity change, negative = inhibition, usual class: inhibitors; hit rate 0.4% among 340,000; active = falling curve of any shape with a large fitted effect; inconclusive = falling curve, mostly with a smaller effect; inactive = flat or rising curve; cell line not stated here;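 note: intracellular cAMP measured with PDE inhibitor Ro 20-1724 present during compound exposure; potency is the fitted concentration of half-maximal effect; % is set by controls: 0 for no effect and ±100 for the full control effect; nearly all actives have a fitted effect of over 65% in size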
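Cells, 2000/well, grown 16–24 h in DMEM 10% FBS with 0.5 mg/ml G418, then compounds plus […] (300 uM addition stock), 30 min at 37C. cAMP read by HTRF (cAMP-d2 and anti-cAMP antibody-K in lysis buffer) after 30 min RT.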
Menin-MLL FL inh = inhibitors of human menin-MLL interaction, wild-type MLL peptide; Fluorescence polarization, fluorescein-MLL peptide displacement from menin; FP activity change, % at 61.4 µM; 290,000 tested, under 10 active; AID 1766; inconclusive = falling polarisation curve, or a change in total fluorescence; inactive = total fluorescence flat and polarisation flat or rising; no compound was filed as active; the % refers to the polarisation; negative = inhibition;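 note: % of control where 0% means no effect; inhibitors lower the polarisation; unlabelled MLL peptide was the positive control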
ClpP mod = qHTS Assay for Activators of ClpP; ATP-dependent Clp protease proteolytic subunit (Bacillus subtilis (strain 168)), P80244; purified B. subtilis ClpP, FRET peptide cleavage, 20 min; Potency, µM (top dose mostly 57.5 µM), inactives show at the top dose activity change, negative = active; hit rate 1.9% among 340,000; active = well fitted falling curve with a large enough effect; inconclusive = small, poorly fitted or top-dose-only effect; inactive = no such curve, though single readings can be large or run the other way; note: potency is the fitted concentration of half-maximal effect; the source files actives as falling curves though it sought activators and does not explain the sign; nearly all actives have a fitted effect of over 65% in size; many hits overshoot -100%
Target sequence (P80244 whole entry, looked up): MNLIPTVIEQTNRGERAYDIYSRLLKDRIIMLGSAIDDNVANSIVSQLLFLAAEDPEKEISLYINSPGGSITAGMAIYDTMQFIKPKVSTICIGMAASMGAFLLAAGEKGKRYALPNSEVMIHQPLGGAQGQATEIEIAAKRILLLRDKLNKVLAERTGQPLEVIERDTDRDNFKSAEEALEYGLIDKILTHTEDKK
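Buffer: 100 mM Tris/HCl pH8, 100 mM KCl, 0.05% low protease BSA, 2.5% glycerol, 0.01% Tween-20. ClpP 10 microg/mL final; 20 min RT; delta FRET normalized to ADEP and DMSO controls.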
TRPML1 inh = blocks the human TRPML1 channel. TRPML1-inducible cells, Ca2+ dye fluorescence, FDSS; hits give low values; inhibition of EC80 agonist-evoked calcium signal. hit rate 0.02% among 390,000. activity change, negative = inhibition, % (test concentration not listed). Q9GZU1; in the data active means activity change below about -50%; inconclusive means about -30% to -50%; inactive means above about -30%;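 note: stimulus is agonist 54-4 at its EC80 concentration; % is set by controls: 0 for no effect and ±100 for the full control effect; compound concentration not given in the record; the text of the record puts the active cut at -80%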
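Tet-induced TRPML1-DL cells loaded with Ca8 no-wash calcium dye were read kinetically on FDSS. Compound addition was followed by EC80 agonist 54-4 (4 uM final); inhibition was read over 110 s.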
gsp ag = gsp mutant agonism | AID 624287 | gsp mutant cells, cAMP HTRF, 30 min; control for the full effect not named in the record | hit rate 0.13% among 340,000 | Potency, µM (highest dose often 76.9 µM), for inactives: at the highest dose activation (cAMP increase), hits mostly activators; active = well fitted activation curve with a large enough effect; inconclusive = small, poorly fitted or top-dose-only effect, or another doubt; inactive = no such curve, though single readings can be large or run the other way; cell line not stated here;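 note: phosphodiesterase inhibitor Ro 20-1724 added with compounds to block cAMP breakdown; potency is the fitted concentration of half-maximal effect; nearly all actives have a fitted effect of over 60% in size; about a fifth of the inactives were tested at one dose only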
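Cells stably selected in G418 were plated at 2000/well, grown 16-24 hr, then given compounds in DMSO with the PDE inhibitor […] (300 uM solution added) for 30 min at 37C; cAMP was read by HTRF.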
Numbers without * were called inactive; ? = inconclusive; nt = not tested or not shown; & = joins results of further samples; [ ] = dose if it differs, or a comment.

SMILES	Sfp inh	TRPV1 potentiator	gsp antag	Menin-MLL FL inh	ClpP mod	TRPML1 inh	gsp ag
CN(C(=O)C(C)(C)C)C1c2c(ccc3ccccc23)OCC1CO (stereo not given)	0%	2	-8%	-0.1	1.2%	11	-6%[15.4 µM]
CS(=O)(=O)N(CC(=O)Nc1ccccc1C(=O)N1CCOCC1)c1ccc2c(c1)OCO2	18%	5	6%	-0.9	0.5%	-5	?
CC(C)(C)[C@@H]1COC(=O)[C@H](Cc2ccc(F)cc2)C/C=C\C[C@@H](CC(=O)NCCO)C(=O)N1	nt	nt	10%	nt	-0.5%	-9	nt
Cc1ccc(-c2nc(NCc3cccnc3)c3ccccc3n2)cc1	9%	-14	35µM*	-0.8	1.3%	27	-7%
COc1ccc(OCCCC(=O)Nc2nncs2)cc1	15%	-3	11%	-3.8	-1.1%	6	-36%[inhibitor]
Cc1ccc(OCCCCn2cnc3ccccc32)cc1	40µM*	?	1%	3.3	-2.5%&-0.2%	26&-25	-49%[inhibitor]
O=C(c1cc(S(=O)(=O)N2CCOCC2)c(Cl)cc1Cl)N1CCCCC1CO (stereo not given)	11%	-1	-5%	3.0	nt	-21	-1%[15.4 µM]
Cc1cc(C2(O)C(=O)Nc3ccccc32)ccc1F (stereo not given)	5%	4	11%	4.0	0.6%	5	?
CC(C)CCNC(=O)C(c1ccncc1)N(Cc1cccs1)C(=O)Cn1nnc(-c2ccc(F)cc2)n1 (stereo not given)	12%	18	-3%	-1.2	-3.8%	35	-37%[inhibitor]
COc1ccc(NS(=O)(=O)N2CCCCC2)cc1	nt	nt	9%	nt	nt	-7	0%
Cc1nn(C)c(C)c1NC(=O)c1cnn2c(C(F)F)cc(-c3ccccc3)nc12	10%	-1	nt	-1.1	nt	nt	nt
O=C(O)COc1ccc(/C=C2\SC(=Nc3ccccc3)N(c3ccccc3)C2=O)cc1	5%	22	-13%	-0.6	-0.8%	1	-27%
N/C(Cc1ccc(Cl)cc1)=N\OC(=O)C1CCCCC1	-12%	?	5%	0.8	1.6%	1	10%
COc1ccc(N2CCN(CC(=O)NCc3ccc(Cl)cc3)CC2)cc1	-2%	-10	-11%	-5.3	-1.7%	7	-1%[15.4 µM]
O=C(COc1ccccc1)NNC(=O)c1ccc(Cl)cc1	nt	-9	4%	nt	-1.4%	-4	-24%
COc1ccc(NC(=O)C2(N(C(=O)Cn3nnnc3N)c3ccc(OC)cc3)CCCCC2)cc1	14%	-13	-10%	-1.8	0.2%	4	-26%
CC(=O)c1ccc(OC(=O)c2ccc(-n3nc(C)cc3C)cc2)cc1	9%	-2	8%	-0.1	nt	20	6%[15.4 µM]
COc1ccc(Nc2ncnc3c2cnn3Cc2ccccc2)cc1	-3%	1	2%	0.6	-4.3%	-5	1%
N/C(=N\O)c1ccc(NC(=O)c2cccs2)cc1	-2%	-6	19%	3.1	-0.5%	3	-20%
O=C(NCc1ccc(Cl)cc1)C(=O)c1cn(CC(=O)N2CCOCC2)c2ccccc12	4%	6	-19%	nt	0.5%	-17	2%
O=C(NNC(=O)c1ccccc1OCc1ccc(F)cc1)c1ccccc1O	16%	-11	-23%	nt	-4.2%	-3	-42%[inhibitor]
Nc1nc2n(n1)C(c1cccs1)CC(c1ccc(F)cc1)N2 (stereo not given)	10%	-1	16%	-2.1	-1.3%	-2	2%
O=C(c1ccco1)N1CCN(c2nc3ccccc3n3nnnc23)CC1	?	-2	-9%	-4.1	-18%	-8	?
CCn1c(O)c(N=NC(=O)c2cccs2)c2ccccc21	-10%	-3	-5%	1.1	-0.4%	11	-5%[15.4 µM]
Cc1ccc(S(=O)(=O)N2CCN(C(=O)C3CCN(C(=O)c4ccc(F)cc4)CC3)CC2)c(C)c1	nt	27	-8%	nt	nt	-7	-16%[15.4 µM]
(continued)
SMILES	Sfp inh	TRPV1 potentiator	gsp antag	Menin-MLL FL inh	ClpP mod	TRPML1 inh	gsp ag
O=C(CNC(=O)c1ccc2c(c1)OCO2)Nc1cccc(Br)c1	nt	6	1%	nt	-10%	-7	-30%
C/C(=N/NC(=O)CNC(=O)Cc1ccccc1)c1ccco1	16%	-8	-22%	5.0	0.4%	-1	-38%[inhibitor]
COCCOc1ccc(C(F)(F)F)cc1NC(=O)COC(=O)c1cc([N+](=O)[O-])ccc1N1CCOCC1	5%	6	-12%	0.6	0.9%	10	15%
C[C@@H]1CN([C@@H](C)CO)C(=O)c2cc(C#CC3CCCCC3)cnc2O[C@@H]1CN(C)S(=O)(=O)c1ccc(F)cc1	nt	nt	nt	nt	-5.6%	-24	8%
Cc1cc[n+]2c3c(cccc13)CCC2	-1%	-2	10%	4.3	25µM*	-2	-28%
Cc1cc(NC(=O)Nc2cccc(Cl)c2)n(-c2ccccc2)n1	-1%	-8	-13%	1.8	nt	0	-19%[15.4 µM]
O=C(COc1ccccc1F)NCC(c1ccc(F)cc1)N1CCOCC1 (stereo not given)	nt	-1	7%	nt	0.8%	13	12%
O=C(O)c1ccc(NC(CSCc2ccccc2F)C(=O)O)c([N+](=O)[O-])c1 (stereo not given)	-3%	7	1%	1.2	3.5%	9	-8%
CN(CC(=O)Nc1ccccc1Br)C(=O)c1cc(S(=O)(=O)N(C)C)ccc1N1CCCC1	nt	-6	-20%	nt	-0.2%	23	20%[15.4 µM]
CCC(C)c1ccccc1OCC(=O)NN1C(=O)c2ccccc2C1=O (stereo not given)	6%	-9	-4%	-3.7	nt	4	-10%
C=CCN(CC=C)Cc1c(O)ccc2c(=O)c(-c3ccccc3)coc12	10%	0	0%	0.1	nt	16	-33%
O=C(CN1C(=O)NC(c2ccccc2)(c2ccccc2)C1=O)NCc1ccco1	nt	nt	-1%	nt	0.1%	-13	8%[15.4 µM]
Cc1cc(SCC(=O)c2ccc3c(c2)OCO3)nc2ccccc12	?	7	-4%	14	-0.2%	41	-3%
BrC(=C\c1ccccc1)/C=N/n1cnnc1	-3%	-9	-3%	2.0	0.7%	26	5%
CCN(CC(=O)NC(C)C)C(=O)c1cc(S(=O)(=O)N2CCCCC2)ccc1N1CCCCC1	nt	nt	3%	nt	nt	0	21%
COC(=O)COc1ccc(S(=O)(=O)NCc2ccco2)cc1	1%	2	-8%	0.1	-1.6%	-7	12%
C[n+]1c2n(c3ccccc31)N=C(c1ccc(Cl)cc1)CS2	-18%	-1	-8%	1.6	1.6%	6	24%
O=C(O)c1sc2ncccc2c1OCc1ccccc1	16%	0	2%	-0.3	nt	-4	-5%
CCCCNC(=O)C1CCCN(S(=O)(=O)CC)C1 (stereo not given)	11%	6	0%	-2.5	3.1%	42	18%
Cn1nccc1-c1cc(Cl)cc(Cl)c1O	3%	-9	-2%	3.6	nt	28	-4%[15.4 µM]
Cc1ccnc(SCc2cc(=O)c(OC(=O)c3ccc(Cl)c([N+](=O)[O-])c3)co2)n1	-32%	0	-15%	4.5	0.2%	0	-40%[inhibitor]
O=C(COc1ccccc1[N+](=O)[O-])N/N=C/c1ccc(O)c([N+](=O)[O-])c1	-4%	3	-29%	1.2	nt	6	1%
CCN(CC(=O)Nc1cc(Cl)ccc1C)C(=O)Cn1c(=O)cnc2ccccc21	nt	-2	-14%	nt	0.5%	-23	0%
CC(C)C[C@@H](CN)NC(=O)c1nc[nH]c1C(=O)N[C@@H](CC(C)C)C(=O)CNC[C@H](C)NC(=O)c1nc[nH]c1C(=O)N[C@@H](C)C(=O)O	nt	nt	1%	nt	-0.5%	29	nt
Cc1cc(C)cc(-n2ccn(CC(=O)NCCc3ccccc3)c(=O)c2=O)c1	-4%	1	8%	1.7	-18%&-3.9%	3&1	12%
(listing goes on)
SMILES	Sfp inh	TRPV1 potentiator	gsp antag	Menin-MLL FL inh	ClpP mod	TRPML1 inh	gsp ag
COc1ccc(/C=C2\SC(=O)N(CCCC(=O)Nc3ccc(C(=O)O)cc3)C2=O)cc1	nt	nt	nt	nt	-1.1%	1	?
O=C(Cn1nc(-c2ccccc2)nc1-c1ccccc1)OC1CCCCC1	-10%	-59	-8%	0.1	-3.9%	12	-21%
Cc1ccc(S(=O)(=O)N2CCN(C(=O)n3ccnc3)CC2)cc1	nt	5	-6%	nt	-2.1%	-2	-36%[inhibitor]
CC(C)CC(O)(c1ccccc1)C(CN1CCOCC1)c1ccccc1 (stereo not given)	4%	-13	1%	0.2	nt	5	5%
C[C@H](CO)N1C[C@H](C)[C@@H](CN(C)Cc2ccc(Cl)c(Cl)c2)Oc2c(NC(=O)C3CCOCC3)cccc2C1=O	nt	nt	?	nt	-0.9%	3	nt
COc1ccccc1C(=O)NC(CCSC)C(=O)N1CCN(C(C)=O)CC1 (stereo not given)	nt	20	7%	nt	-3.5%	-3	-7%
O=C1CCC(C(=O)Nc2ccc(Cl)cc2)N1 (stereo not given)	27%	-5	9%	2.7	1.1%	4	-2%[15.4 µM]
COc1ccc(NC(=O)C2CCN(Cc3cnn(-c4ccccc4)c3-n3cccc3)CC2)cc1OC	18%	-4	2%	2.9	1.1%	-19	2%
O=C(NC(=S)Nc1cccc2ncccc12)c1ccco1	-30%	-12	7%	-0.8	-0.6%	11	-11%
CCSCCOC(=O)C1=C(C)NC(=O)NC1c1ccccc1 (stereo not given)	22%	1	9%	1.2	-8.9%	4	18%
CCOCCN1CCN(C2c3ccccc3CSc3ccccc32)CC1 (stereo not given)	nt	nt	-5%	nt	0.6%	-4	4%[15.4 µM]
CCN(CC(=O)Nc1ccccc1C(F)(F)F)C(=O)CSCc1c(C)noc1C	nt	9	3%	nt	-3.0%	16	-39%
CC(=O)Nc1nnc(SCC(=O)NC2CC2)s1	14%	3	6%	0.6	nt	15	-15%[15.4 µM]
Cc1nn(-c2ccccc2)nc1CNS(C)(=O)=O	22%	-6	3%	2.3	nt	3	4%[15.4 µM]
Cc1ccccc1-c1nc2c3ccccc3nc(=S)n2[nH]1	-22%	15	-4%	-1.0	-1.1%	nt	?
O=C(/C=C/c1ccccc1)CC(=O)c1ccccc1	nt	nt	1%	nt	-2.9%	25	17%[15.4 µM]
O=C(Cc1ccc(NC(=O)C2CCN(C(=O)C3CCCC3)CC2)cc1)Nc1cccc(C(=O)N2CCCCC2)c1	nt	nt	1%	nt	0.0%	9	nt
COc1ccc(/C=C/CN2CCC(Oc3ccc(C(=O)N4CCCCC4)cc3)CC2)cc1	-3%	4	9%	1.4	-2.2%	-3	6%[15.4 µM]
